High-throughput results: PubChem BioAssay, several laboratories
Tb hexokinase: T. brucei hexokinase 1 inhibition; 0.11% of 220,000 active; recombinant TbHK1, G6PDH-coupled NADH A340; AID 1430; inhibition, % at 10 µM;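 active = inhibition of 50% or more in the single-dose primary screen; inactive = inhibition below 50%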
TNF death inh: inhibitors of TNF-alpha induced necroptosis in Jurkat FADD-/- cells | Jurkat FADD-/- TNF necroptosis rescue, ATP luminescence, 24 h; 0 = TNF only, 100 = no-TNF cells | activation (protection from cell death), % at 10 µM | 0.068% of 220,000 active | AID 463075;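 active = activation, meaning protection from cell death, of at least 50% relative to plate controls; inactive = activation below 50%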;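 note: necroptosis triggered by 40 ng/mL TNF-alpha added together with compound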
PGE2 EP2 inh: inhibitors of human EP2 prostaglandin E2 receptor; P43116; C6 glioma cells expressing human EP2, cAMP TR-FRET; cells stimulated with saturating PGE2; inhibition, % at 25 µM; 0.52% of 260,000 active;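 active = percent inhibition above 40 after rounding to a whole number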;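 note: rat C6 glioma host cells with rolipram phosphodiesterase inhibitor present; the protocol text gives 20 µM as final concentration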
CHOP inhibitor: blocks CHOP induction under ER stress | CHO-K1 CHOP-promoter luciferase, tunicamycin-induced, 15-18 h | 3.8% of 220,000 active | AID 2732 | inhibition, % at 10 µM;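 active = compounds that reduced the stress-induced luciferase reporter signal by more than about 70% of percent inhibition, limit read from the data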;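 note: 0% = tunicamycin plus vehicle and 100% = wells without tunicamycin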
Wee1 stabilizer: inhibitors of human Wee1 degradation; P30291; HeLa Luc-Wee1K328M stability, luciferase luminescence; 100% = proteasome inhibitor MG132 effect; reporter increase, % at 5 µM; 1.2% of 220,000 active;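 active = activation above the mean of all tested compounds plus 3 SD, set per screening run, cut at about 8.8% in these data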;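 note: cells exposed to compound for 20 h before luminescence read; 0% = DMSO alone and 100% = MG132 at 30 µM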
Target sequence (P30291 whole entry K328M): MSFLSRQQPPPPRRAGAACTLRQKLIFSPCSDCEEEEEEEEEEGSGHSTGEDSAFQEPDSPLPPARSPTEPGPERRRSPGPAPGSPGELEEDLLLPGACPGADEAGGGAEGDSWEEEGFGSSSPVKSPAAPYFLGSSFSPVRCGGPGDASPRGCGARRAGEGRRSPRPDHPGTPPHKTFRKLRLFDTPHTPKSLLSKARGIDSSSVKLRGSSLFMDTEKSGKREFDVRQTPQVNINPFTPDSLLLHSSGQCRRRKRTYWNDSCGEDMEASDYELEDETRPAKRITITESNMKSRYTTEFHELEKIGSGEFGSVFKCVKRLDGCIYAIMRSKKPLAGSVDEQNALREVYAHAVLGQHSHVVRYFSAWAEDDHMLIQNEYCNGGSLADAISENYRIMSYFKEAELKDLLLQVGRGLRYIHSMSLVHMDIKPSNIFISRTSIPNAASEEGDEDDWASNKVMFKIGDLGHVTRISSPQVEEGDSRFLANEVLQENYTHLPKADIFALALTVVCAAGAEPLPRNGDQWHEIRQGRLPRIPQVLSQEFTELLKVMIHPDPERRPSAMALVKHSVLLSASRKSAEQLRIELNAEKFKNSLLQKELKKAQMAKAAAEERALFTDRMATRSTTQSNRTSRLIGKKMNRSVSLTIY
PPC-1+TRAIL kill: PPC-1 cancer cell killing with TRAIL present; cell killing (% activity), % at 4 µM; AID 1443; 0.41% of 220,000 active; PPC-1 cells + TRAIL, ATPLite viability luminescence;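 active = cell killing above 50% in the first pass at 4 µM, then a duplicate retest at 5 µM averaging 50% or more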;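 note: plate controls were cells with TRAIL plus DMSO for no effect and medium-only wells lacking cells for full effect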
zVAD death inh: blocks zVAD induced death of L929 cells | viability rescue, % at 10 µM | 0.38% of 220,000 active | L929 zVAD necroptosis rescue, ATP luminescence, 24 h; with zVAD 60 µM;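 active = activation, scaled between plate controls, above about 75%, limit read from the data; inactive = activation under that limit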;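 note: 0% = zVAD with DMSO and 100% = DMSO alone without zVAD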
An asterisk follows results filed as active; . = not tested or not shown; & = joins results of further samples. A portion of the library; rates above refer to the full screens.

(1) Cc1cccc(C)c1Nc1nnc(SCC(=O)NC(=O)c2cccn2C)s1
(2) O=S(=O)(Nc1nc2ccccc2nc1NCC1CCCO1)c1ccccc1 (configuration not stated)
(3) COc1ccccc1OCc1nnc(SCC(=O)Nc2ccc(C)cc2)n1C
(4) O=C(CCc1ccccc1)n1nc(-c2ccco2)nc1SCc1ccccc1
(5) CC1(C)NC(=O)N(CNc2cc(Cl)ccc2Cl)C1=O
(6) CCN(CC)S(=O)(=O)c1cccc(C(=O)N[C@H](C(=O)OCC(=O)Nc2ccccc2)C(C)C)c1
(7) Nc1ccc(C(=O)Oc2ccc([N+](=O)[O-])cc2)cc1
(8) Cc1sc2nc(CN3CCCC3)nc(N3CCC(C(N)=O)CC3)c2c1C
entry no. | 1 | 2 | 3 | 4 | 5 | 6 | 7 | 8
PGE2 EP2 inh | 4 | 6 | 9&11 | . | 12 | 16 | 8 | 7
Wee1 stabilizer | -3 | 2 | -3 | 7 | -1 | 0 | 0 | 2
Tb hexokinase | 4 | -33 | 1 | -6 | -3 | -3 | -14 | -8
CHOP inhibitor | 23 | 14 | 31 | -13 | 24 | -6 | -14 | -10
TNF death inh | 0.9 | 3.6 | -0.5 | -0.1 | 0.5 | 2.4 | -2.1 | -2.0
PPC-1+TRAIL kill | 2 | 13 | -2 | -3 | 16 | 3 | -15 | -12
zVAD death inh | 1.3 | 0.2 | 0.7 | -1.2 | -0.4 | -0.3 | 0.6 | 0.1

(9) O=C(O/N=C1\CCS(=O)(=O)c2sccc21)c1c(F)cccc1F
(10) C/C(=N/NC(=O)CNC(=O)CCc1ccccc1)c1ccc(Cl)cc1
(11) COC(=O)C1=NN(c2ccccc2)C2C(=O)N(c3ccccc3OC)C(=O)C12 (configuration not stated)
(12) COc1ccc(C(N)CCc2ccc(C)o2)cc1 (configuration not stated)
(13) COCCN=C1NN=C(c2cc(C)n(CC3CCCO3)c2C)CS1 (configuration not stated)
(14) Cc1cc(N/N=C/c2ccccc2[N+](=O)[O-])nc(-n2nc(C)cc2C)n1
(15) CC(C)(C)C(=O)NC(NC(=S)Nc1sc2c(c1C#N)CCCC2)C(Cl)(Cl)Cl (configuration not stated)
(16) CCC(=O)Oc1oc(-c2ccccc2)nc1C=Nc1ccccc1OC
entry no. | 9 | 10 | 11 | 12 | 13 | 14 | 15 | 16
PGE2 EP2 inh | 7 | 5 | 6 | . | 3 | 13 | 9 | 11
Wee1 stabilizer | 4 | 1 | -1 | 2 | 4 | -4 | -2 | 3
Tb hexokinase | 1 | -2 | -25 | -1 | -9 | -26 | -11 | 3
CHOP inhibitor | 14 | 17 | -6 | 9 | -4 | 61 | 97* | 93*
TNF death inh | 0.2 | 0.6 | 0.8 | 1.5 | -0.7 | -17 | -4.3 | -2.8
PPC-1+TRAIL kill | 2 | 4 | -10 | 3 | -7 | 19 | 12 | 4
zVAD death inh | 1.6 | 1.3 | 0.2 | -0.2 | 0.4 | 4.4 | 1.2 | -0.4

(17) CC1CCc2sc(NC(=S)NC(=O)c3ccccc3)c(C#N)c2C1 (configuration not stated)
(18) CCOc1cc(S(=O)(=O)NCCN2CCOCC2)c(C)cc1C
(19) COC(=O)c1nc2nc(-c3cccs3)cc(C(F)(F)F)n2n1
(20) O=C(c1cccc(F)c1)n1nnc2ccccc21
(21) CCn1c(CNC(=O)COc2ccc(C(C)C)cc2)nnc1SCC(=O)Nc1ccccc1
(22) N#Cc1cnc(SCC(=O)Nc2ccccc2C(F)(F)F)nc1N
(23) COc1ccc(C(=O)O/N=C2\CCS(=O)(=O)c3sccc32)cc1
(24) CCOC(=O)c1cc(Br)c(=O)n2ccccc12
entry no. | 17 | 18 | 19 | 20 | 21 | 22 | 23 | 24
PGE2 EP2 inh | 6 | 11 | 12 | 2 | 10 | 10 | 5 | .
Wee1 stabilizer | 1 | 5 | -1 | 6 | 1 | -2 | 4 | 1
Tb hexokinase | 19 | -4 | -31 | -1 | -7 | 0 | 7 | -16
CHOP inhibitor | -3 | -8 | 0 | 23 | 16 | 3 | 7 | -8
TNF death inh | 2.6 | -1.3 | 1.3 | -0.2 | 0.4 | -0.4 | -1.1 | -1.5
PPC-1+TRAIL kill | 21 | 13 | 21 | -8 | -5 | 18 | 2 | -9
zVAD death inh | 2.8 | -0.2 | 0.6 | -0.1 | -0.1 | 0.5 | -0.3 | -0.2

(25) COC(=O)c1cc2ccsc2n1CC(=O)N(C)c1ccccc1
(26) COC(=O)N/N=C/c1ccc(Oc2ccccc2)cc1
(27) COc1cc2nc(C(C)(C)C)oc(=O)c2cc1OC
(28) CCC(=O)Nc1ccc(C(=O)n2nc(C)cc2C)cc1
(29) NS(=O)(=O)c1ccc(NC(=O)COC(=O)C2(c3ccccc3F)CCCC2)cc1
(30) O=C(CCN1CCCC1)Nc1cccc(Br)c1
(31) COc1ccc(/C(C)=N/NC(=O)c2ccc(NS(=O)(=O)c3cccs3)cc2)cc1
(32) CC1(C)Cc2ccccc2C(/C(C#N)=N/O)=N1
(33) COc1ccc(-c2cc(-c3n[nH]c(=S)n3-c3cc(OC)ccc3OC)[nH]n2)cc1
entry no. | 25 | 26 | 27 | 28 | 29 | 30 | 31 | 32 | 33
PGE2 EP2 inh | 19 | 13 | 6 | 10 | 6 | -1 | 7 | 7 | 8
Wee1 stabilizer | -1 | 4 | 0 | -1 | 1 | 1 | 2 | 0 | -1
Tb hexokinase | -3 | 12 | 3 | 6 | 3 | -5 | -40 | 9 | -1
CHOP inhibitor | 40 | 5 | -1 | -19 | 16 | 33 | -9 | 20 | 11
TNF death inh | -2.0 | -1.1 | 0.7 | -2.3 | 0.1 | -0.4 | 5.8 | 0.0 | 0.3
PPC-1+TRAIL kill | 2 | 10 | 16 | -26 | 4 | 1 | 20 | 12 | 6
zVAD death inh | 0.3 | 0.0 | -0.7 | -0.4 | 0.1 | -0.1 | -0.1 | -1.7 | -0.1

Part of the list above in order of count of non-hydrogen atoms, high to low:
(21) CCn1c(CNC(=O)COc2ccc(C(C)C)cc2)nnc1SCC(=O)Nc1ccccc1
(31) COc1ccc(/C(C)=N/NC(=O)c2ccc(NS(=O)(=O)c3cccs3)cc2)cc1
(22) N#Cc1cnc(SCC(=O)Nc2ccccc2C(F)(F)F)nc1N
(25) COC(=O)c1cc2ccsc2n1CC(=O)N(C)c1ccccc1
(19) COC(=O)c1nc2nc(-c3cccs3)cc(C(F)(F)F)n2n1
(28) CCC(=O)Nc1ccc(C(=O)n2nc(C)cc2C)cc1
(27) COc1cc2nc(C(C)(C)C)oc(=O)c2cc1OC
(20) O=C(c1cccc(F)c1)n1nnc2ccccc21
(32) CC1(C)Cc2ccccc2C(/C(C#N)=N/O)=N1
entry no. | 21 | 31 | 22 | 25 | 19 | 28 | 27 | 20 | 32
PGE2 EP2 inh | 10 | 7 | 10 | 19 | 12 | 10 | 6 | 2 | 7
Wee1 stabilizer | 1 | 2 | -2 | -1 | -1 | -1 | 0 | 6 | 0
Tb hexokinase | -7 | -40 | 0 | -3 | -31 | 6 | 3 | -1 | 9
CHOP inhibitor | 16 | -9 | 3 | 40 | 0 | -19 | -1 | 23 | 20
TNF death inh | 0.4 | 5.8 | -0.4 | -2.0 | 1.3 | -2.3 | 0.7 | -0.2 | 0.0
PPC-1+TRAIL kill | -5 | 20 | 18 | 2 | 21 | -26 | 16 | -8 | 12
zVAD death inh | -0.1 | -0.1 | 0.5 | 0.3 | 0.6 | -0.4 | -0.7 | -0.1 | -1.7
